# EPAC2 antag = human EPAC2 antagonism, validation; Q8WZA2; 16,000 compounds, 1.7% hits; AID 1645886; Potency, µM (doses to about 112 µM), without a hit: top-dose activity, negative = inhibition, most hits filed as inhibitors; EPAC2 Rap1B BODIPY-GDP exchange, fluorescence; active means well fitted inhibition curve with a large enough effect;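 further: 100% = activation by cAMP agonist control; nearly all actives have a fitted effect of over 40% in size; the record reuses the description of the EPAC1 agonist screen; inactives centre near -10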
#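 Normalized against a 6.5 mM cAMP agonist control, compounds were tested on 100 nM EPAC2 exchanging Rap1B-bound BODIPY-GDP (250 nM) for 50 uM GDP. Fluorescence drop (ex 480, em 540 nm) was tracked at room temperature over 30 min at 5-min intervals.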
# The depositor's hits bear a star; & = joins results of further samples. Potency means the concentration at half of the fitted maximal effect. Not all compounds are listed. The share of hits here may be higher or lower than overall.
SMILES,EPAC2 antag
C[C@@](N)(C(=O)O)c1cccc(CC(=O)O)c1,-19%
COc1ccc(CN2[C@@H](CC(C)=O)c3ccc(/C=C/C(C)=O)cc3S2(=O)=O)cc1,-23%
CCC(COC)NC(=O)c1cnn(-c2ncc3c(n2)-c2ccccc2CCC3)c1C (stereo unspecified),-18%
COc1c(-c2ccc(O)c(O)c2)oc2cc(O)cc(O)c2c1=O,-2%
COC(=O)[C@H](Cc1ccccc1)NC(=O)[C@@H](N)CC(=O)O,-13%&7%
N#CCCn1c(=O)c(-c2ccccc2)nc2cnc(N3CCOCC3)nc21,-24%
O=C(/C=C(\O)c1ccccc1)c1ccccc1O,-22%
COc1ccccc1/C=C\C(=O)O,-7%

# In the list so far, 3 have an aryl methoxy group.
SMILES,EPAC2 antag
COc1ccc(CN2[C@@H](CC(C)=O)c3ccc(/C=C/C(C)=O)cc3S2(=O)=O)cc1,-23%
COc1c(-c2ccc(O)c(O)c2)oc2cc(O)cc(O)c2c1=O,-2%
COc1ccccc1/C=C\C(=O)O,-7%

# In another format: 2 of the compounds above.
Compound: CCC(COC)NC(=O)c1cnn(-c2ncc3c(n2)-c2ccccc2CCC3)c1C (stereo unspecified)
  EPAC2 antag = -18%
Compound: COc1c(-c2ccc(O)c(O)c2)oc2cc(O)cc(O)c2c1=O
  EPAC2 antag = -2%

# Source: PubChem BioAssay (National Center for Advancing Translational Sciences (NCATS))
